Source: PubChem
TRPML1 blocker = human mucolipin-1 channel inhibition | Q9GZU1 | activity change, negative = inhibition, % (no concentration beside the values) | TRPML1-inducible cells, Ca2+ dye fluorescence, FDSS; active compounds read low; inhibition of EC80 agonist-evoked calcium signal | actives 0.02% (n = 390,000) | AID 624415; in the data active means activity change below about -50%; inconclusive means about -30% to -50%; inactive means above about -30%;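 further: stimulus is agonist 54-4 at its EC80 concentration; on the % scale 0 is the no-effect control and ±100 the full control effect; compound concentration not given in the record; the text of the record puts the active cut at -80%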
Target sequence (Q9GZU1 whole entry, looked up): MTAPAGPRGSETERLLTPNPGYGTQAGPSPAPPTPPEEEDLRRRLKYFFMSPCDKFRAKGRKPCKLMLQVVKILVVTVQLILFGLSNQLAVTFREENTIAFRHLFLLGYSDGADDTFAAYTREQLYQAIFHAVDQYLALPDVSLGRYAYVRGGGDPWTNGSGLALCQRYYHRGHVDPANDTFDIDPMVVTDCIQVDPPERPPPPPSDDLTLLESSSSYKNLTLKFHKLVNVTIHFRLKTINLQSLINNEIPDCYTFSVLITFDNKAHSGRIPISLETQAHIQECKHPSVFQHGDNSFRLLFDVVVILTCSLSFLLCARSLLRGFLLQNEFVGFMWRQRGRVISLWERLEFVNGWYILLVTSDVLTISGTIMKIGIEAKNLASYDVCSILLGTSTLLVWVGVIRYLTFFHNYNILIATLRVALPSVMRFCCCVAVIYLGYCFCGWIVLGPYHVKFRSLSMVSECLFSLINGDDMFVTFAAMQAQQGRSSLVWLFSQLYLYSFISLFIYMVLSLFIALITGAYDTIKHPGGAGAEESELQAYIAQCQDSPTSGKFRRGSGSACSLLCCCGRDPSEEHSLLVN
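Calcium fluorescence in TRPML1-DL cells induced overnight with Tet: a 110 s read after compound pin addition, then a 110 s antagonist read after challenge with 54-4 at 4 uM final (EC80).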
Six1-Eya2 inh = blocks human Six1 binding to Eya2 | activity change, % (test concentration not listed) | actives 0.56% (n = 360,000) | AlphaScreen GST-Six1/His-Eya2 binding, biochemical; active compounds read low; control for the full effect not named in the record | Q15475+O00167; in the data active = activity change below about -65%; inconclusive = about -30% to -65%; inactive = above about -30%; further: on the % scale 0 is the no-effect control and ±100 the full control effect
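Compounds are tested against tagged Six1 and Eya2 proteins bridged by glutathione donor and nickel acceptor beads; after a one-hour incubation at 37 °C without light, AlphaScreen emission is recorded.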
TRPML1 agonist = agonists of human TRPML1 channel; Q9GZU1; TRPML1-expressing cells, Ca2+ dye fluorescence, FDSS; host cell line not named in the record; reference of the full effect not given here; activation, % (no concentration beside the values); actives 0.12% (n = 410,000); AID 624414; in the data active = activation above about 50%; inconclusive = about 30% to 50%; inactive = below about 30%; further: 0% is about no effect; the text of the record puts the active cut at 80%
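Tetracycline-induced TRPML1-DL cells are seeded and incubated overnight before loading with a no-wash Ca2+ dye and quencher. Agonist activity is taken from the 110 s fluorescence read following compound pin-transfer on an FDSS, before EC80 54-4 challenge.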
PINK1 expr mod = PINK1 expression modulation; PINK1 immunofluorescence, high-content cytometry, 24 h; Potency, µM (doses to about 76.6 µM), inactives show at the top dose activation (PINK1 increase), actives largely listed as activators; actives 0.2% (n = 410,000); AID 624263; active = well fitted activation curve with a large enough effect; inconclusive = small, poorly fitted or top-dose-only effect; inactive = flat fitted curve, though single readings scatter; cell line not stated here;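 further: potency means the concentration at half of the fitted maximal effect; % of control where 0% means no effect; nearly all actives have a fitted effect of over 65% in size; a mitochondrial uncoupler was the plate control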
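Measures PINK1 amount and localization on or inside mitochondria by immunofluorescence. Stable cells get compounds at 5 concentrations for 24 hours before fixation and staining; CCCP controls included.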
CtBP-E1A inh = blocks the CtBP interaction with E1A; AlphaScreen GST-E1A/His-CtBP binding, 1536-well; active compounds read low; control for the full effect not named in the record; activity change, % (no concentration beside the values); actives 0.49% (n = 340,000); AID 651724; in the data active means activity change below about -65%; inconclusive means about -30% to -65%; inactive means above about -30%; further: on the % scale 0 is the no-effect control and ±100 the full control effect
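Protein mix (5X: 125 nM each GST-E1A, His-CtBP) was incubated with pinned compound 2 h at 37 deg C in dark, in 50 mM Tris pH 8.0 buffer with 300 mM NaCl. Glutathione donor and nickel acceptor beads followed; AlphaScreen signal read after 1 h.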
D2 ag = human D2 receptor agonism in beta-arrestin assay; DiscoveRx PathHunter D2 beta-arrestin, luminescence, 90 min; 100% = 57 uM dopamine signal; AID 624465; activation, % (test concentration not listed); P14416; actives 0.084% (n = 360,000); in the data active = activation above about 40%; inconclusive = about 15% to 40%; inactive = below about 15%; further: compound concentration not given in the record; the text of the record calls up to 30% inactive
Target sequence (P14416 whole entry, looked up): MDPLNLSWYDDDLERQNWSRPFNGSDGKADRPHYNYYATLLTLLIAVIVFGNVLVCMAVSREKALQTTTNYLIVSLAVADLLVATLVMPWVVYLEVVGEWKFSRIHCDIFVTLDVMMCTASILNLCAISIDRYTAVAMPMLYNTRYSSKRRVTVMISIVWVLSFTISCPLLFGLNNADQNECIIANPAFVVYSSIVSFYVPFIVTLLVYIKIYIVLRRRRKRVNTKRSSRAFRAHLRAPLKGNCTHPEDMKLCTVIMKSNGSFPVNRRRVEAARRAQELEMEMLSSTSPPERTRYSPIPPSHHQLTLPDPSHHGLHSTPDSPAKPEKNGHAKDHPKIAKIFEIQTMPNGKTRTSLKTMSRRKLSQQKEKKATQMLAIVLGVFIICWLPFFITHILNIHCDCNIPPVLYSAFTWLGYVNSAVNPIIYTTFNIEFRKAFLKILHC
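Agonist mode: compounds alone added to overnight-plated D2 PathHunter cells for 90 min at 37 C, with 57 uM final dopamine (EC100) defining full response. Beta-arrestin recruitment detected by chemiluminescent reagent, read after 1 h at ambient temperature.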
Active calls of the source: *; u = inconclusive; x = no result given; & = joins results of further samples; [ ] = remark or other dose.

Results follow in this order: TRPML1 blocker	Six1-Eya2 inh	TRPML1 agonist	PINK1 expr mod	CtBP-E1A inh	D2 ag
> Cc1ccc(NC(=O)CN(CCc2ccccc2)S(=O)(=O)c2ccccc2)c(C)c1
    18	x	-0.2	11%	x	x
> Cn1cc(CN2CCN(Cc3cccnc3)CC2)c(-c2ccc3c(c2)OCCO3)n1
    -15	4	0.1	0.4%	-12	1.4
> COc1c(C(=O)Nc2ccccc2N2CCOCC2)cc2ccccc2c1Br
    -5	5	-0.4	6.1%	4	-0.9
> CN(C)c1cccc(NC(=O)c2cccc3ccccc23)c1
    16	-27	1.6	3.9%	u	-6.1
> CCC(C)(C)C1CCc2[nH]nc(C(=O)NCc3ccc(OC)cc3)c2C1 (stereo not given)
    6	-2	1.0	6.9%	3	0.7
> S=c1[nH]nc(-c2ccc(Cl)cc2Cl)n1-c1ccccc1
    x	6	x	0.6%	x	1.6
> O=C1NCCCC1C(=O)N1CCN(C(c2ccccc2)c2ccccc2)CC1 (stereo not given)
    -5	6	-0.6	0.6%[38.3 µM]	6	-0.9
> O=C(O)Cc1n[nH]c(=O)c2ccccc12
    9	3	2.9	1.7%	3	-6.9
> FC(F)(F)c1cc(-c2ccccc2)nc(N2CCOCC2)n1
    -6	75	-0.6	-0.5%	53	0.1
> CC1(C)Oc2ccc3ccc(=O)oc3c2/C(=C/NNC(N)=O)C1=O
    x	1	x	-0.7%	x	-23
> CC(C)(C)C1=NN(c2ccc([N+](=O)[O-])cc2)C(c2ccccc2)C1 (stereo not given)
    -1	6	0.1	9.5%	5	-4.7
> CC1(c2nnc(-c3cccc(Cl)c3)o2)CC(c2ccccc2Br)=NO1 (stereo not given)
    9	-7	1.4	1.5%	14	-2.7
> Cc1ccc(S(=O)(=O)N2CCOCC2)cc1NC(=O)CSc1ncccn1
    -11	2	-0.1	1.1%	-24	-1.6
> Cc1nn(-c2ncc(C(F)(F)F)cc2Cl)c(=O)n1-c1ccccc1
    22	-1	0.6	-0.4%	-2	-1.5
> O=C(NCCN1CCOCC1)c1ccc(CS(=O)(=O)c2c(Cl)cccc2Cl)o1
    32	0	0.8	9.2%	2	1.6
> COc1ccc2oc(=O)c(C(=O)OCc3ccccc3)cc2c1
    -13	11	1.4	1.1%	9	1.5
> COc1cccc(NC(=O)C2CC(=O)N(c3ccc(Br)cc3)C2)c1 (stereo not given)
    2	x	0.1	-2.2%	x	x
> COCCCNC(=O)CC1C[C@H](C(=O)N2CCOCC2)[C@@]2(C)c3[nH]c4ccccc4c3CCN2C1=O (stereo not given in full)
    6	3	0.1	-0.1%	2	-3.3
> Cc1cccc(COCC(Cc2ccccc2)N2CCN(C(=O)c3cccc(C)c3)CCC2=O)c1 (stereo not given)
    -20	-9	0.4	-0.2%	-2	-0.6
> COc1ccccc1NC(=O)Cn1nc2c3cc(F)ccc3n(Cc3cccc(C)c3)cc-2c1=O
    -5	x	2.9	u	x	x
> CCCCNC(=S)N1CCN(c2ccc(C(C)=O)cc2)CC1
    -21	-8	-0.4	-0.3%	-19	-1.6
> CCC(C)(C)n1nnnc1C(c1ccc(OC)c(OC)c1)N1CCN(C(=O)c2ccco2)CC1 (stereo not given)
    7	5	-0.6	2.7%	22	4.9
> COc1cccc(OC)c1C(=O)NC(=S)Nc1cccc(NC(=O)c2ccco2)c1
    -5	2	2.1	3.4%	1	2.8
> CC(C)NC(=O)c1ccccc1NC(=O)c1ccccc1N(C)S(C)(=O)=O
    -21	-2	0.6	2.5%[38.3 µM]	-4	-1.3
> COc1ccc2c(CNCc3cccs3)c(C(=O)O)n(Cc3ccccc3F)c2c1
    -8	x	-0.5	3.5%	x	x
> Cc1ccc(-c2nc(N)sc2C)cc1
    -4	-3	0.5	1.2%	x	-2.5
> Cc1ccc(S(=O)(=O)NCc2c(-c3ccccc3)c3cc(Cl)ccc3[nH]c2=O)cc1
    8	7	0.7	6.2%	3	-2.1
> Cc1nc2ccccc2n1CCc1nc2c3ccccc3nc(SCc3cccc(F)c3)n2n1
    -9	x	1.1	5.7%	x	x
> CCCNC(=O)NC(=O)CN1C(=O)NC(C)(c2ccc(C)cc2)C1=O (stereo not given)
    -1	2	0.7	-3.0%[38.3 µM]	5	-1.1
> CCc1nc2ccc(C(=O)N3CCN(C(=O)c4ccco4)CC3)cn2c1N(C)C(=O)COc1ccccc1
    x	13	-0.9	1.7%	-25	-4.1

(further entries)
Results follow in this order: TRPML1 blocker	Six1-Eya2 inh	TRPML1 agonist	PINK1 expr mod	CtBP-E1A inh	D2 ag
> CCCNC(=O)CSc1nccn1Cc1ccc(OC)cc1
    3	-29	0.3	1.3%	-1	-4.7
> CCOC(=O)c1sc(NC(=O)C(C)C)c(C#N)c1C
    -7	-11	0.9	5.8%	0	1.5
> O=C(Cc1n[nH]c(=O)c2ccccc12)OCc1c(Cl)cccc1Cl
    -7	3	-0.8	2.0%	0	0.2
> CCCNC(=O)C1(C)CCCN(Cc2cccc(C#N)c2)C1 (stereo not given)
    x	12	-0.1	-1.3%	1	-3.5
> COc1ccc(NC(=O)C2CCCN(S(=O)(=O)c3ccc(-n4cnnn4)cc3)C2)cc1 (stereo not given)
    -11	26	0.7	10%	-5	-4.9
> C/C(Cc1ccccc1)=N\NC(=O)CNC(=O)c1ccc(F)cc1
    38	0	-0.1	-0.1%	-12	-3.7
> N#CC1=C(N)N(c2ncn[nH]2)C2=C(C(=O)CCC2)C1c1ccccc1 (stereo not given)
    10	-7	0.8	-3.6%	-11	1.5
> Cc1ccc(C(=O)C2=C(O)C(=O)N(c3ncccn3)C2c2ccc(Cl)cc2)o1 (stereo not given)
    -2	-1	0.3	-0.2%	5	-0.5
> O=C(OCC(=O)N1CCN(C(=O)c2ccco2)CC1)c1cncc(Br)c1
    -8	1	-0.4	3.4%	4	-1.1
> Fc1ccc(Cn2nnc(-c3ccc(Cl)cc3)n2)cc1
    -5	6	2.1	5.7%	17	-0.8
> Cc1cc(C)c(C#N)c(N2CCN(Cc3ccc4c(c3)OCO4)CC2)n1
    27	-12	0.1	-0.4%	-1	-5.9
> CCC(NC(=O)CC[C@H]1O[C@@H](n2cc(C)c(=O)[nH]c2=O)C[C@@H]1O)c1ccccc1 (stereo not given in full)
    -8	-1	-0.6	-0.5%	4	-1.6
> Cn1c2nc(=O)n(-c3ccccc3)c(=O)c-2nc2c1CCCC2
    5	-12	7.3	-0.2%	0	3.8
> CCC1CCCCN1CCCNC(=O)c1ccc2c(c1)NC(=O)CN2C (stereo not given)
    12	9	-0.1	-0.6%	5	-17
> CCCCNC(=O)Cn1cnc2sc(C)c(S(=O)(=O)N3CCN(c4ccccc4OC)CC3)c2c1=O
    -7&22	3	-0.1&0.4	5.5%&0.8%	0	0.5
> O=C1[C@H]2[C@H](C=CC[C@H]2C(=O)N2CCOCC2)CCN1Cc1ccc(Cl)c(Cl)c1
    30	2	-0.2&-0.1	0.8%	-5	-7.3
> O=S(=O)(c1cccc(F)c1)N1CCC(Oc2ccc(-n3cnnn3)cc2)CC1
    20	x	1.8	0.3%	x	x
> O=C(c1cc([N+](=O)[O-])ccc1Cl)N1CCN(c2ccc([N+](=O)[O-])cc2)CC1
    9	2	0.1	0.6%	-4	8.0
> CCOCCCNCC(=O)Nc1cc(S(=O)(=O)N2CCOCC2)ccc1N1CCOCC1
    8	-3	0.1	-0.2%	4	-3.9
> O=C(CSc1nccc2ccccc12)N1CCN(Cc2ccc3c(c2)OCO3)CC1
    -10	-11	1.7	-1.5%	-20	-1.6
> CC1Cc2cc(/C(O)=C3/C(=O)C(=O)N(Cc4ccco4)C3c3cccs3)ccc2O1 (stereo not given)
    -16	-7	0.6	0.7%	-3	-1.2
> Cc1c(C(c2cccs2)c2c(C)n(C)n(-c3ccccc3)c2=O)c(=O)n(-c2ccccc2)n1C
    -11	17	-0.5	1.2%	11	-2.8
> COc1cccc(NC(=O)CSc2nc3cc(OC)c(OC)cc3c3nc(-c4ccccc4)nn23)c1
    -16	x	-0.6	1.2%	x	x
> CCn1cc([N+](=O)[O-])c(C(=O)Nc2nc(-c3ccc(C)c(C)c3)c(C)s2)n1
    -12	-1	0.5	2.8µM*	9	1.1
> C/C=C/c1cccc(-c2nc(C(=O)NC3Cc4ccccc4C3)cc3c2[C@@H](CCO)N(C(C)=O)C3)c1
    x	-5	0.2	3.3%	0	x
> c1ccc(-n2nnnc2Oc2ccc(-c3nnco3)cc2)cc1
    4	5	0.2	-0.5%	3	1.8
> CC1CN(C(=O)Nc2ccc(C(=O)NCCc3ccc(Cl)cc3)cc2)c2ccccc2S1 (stereo not given)
    3	x	1.5	5.3%	x	x
> Cc1ccc(Cn2cc(CN3CC(N4CCN(Cc5ccccc5F)CC4)CS3(=O)=O)nn2)cc1 (stereo not given)
    x	4	-0.5	-0.7%	0	x
> Cc1nnsc1C(=O)N1CCC(C(=O)c2ccccc2)CC1
    23	4	-0.7	-1.4%	12	-3.3
> COc1ccc(CCn2c(C)cc(C(=O)COC(=O)c3ccc(O)cc3O)c2C)cc1
    -11	-12	-0.2	6.4%	-4	1.7

Gathered by group, the entries above with a nitro group on carbon (3)
Results follow in this order: TRPML1 blocker	Six1-Eya2 inh	TRPML1 agonist	PINK1 expr mod	CtBP-E1A inh	D2 ag
> CC(C)(C)C1=NN(c2ccc([N+](=O)[O-])cc2)C(c2ccccc2)C1 (stereo not given)
    -1	6	0.1	9.5%	5	-4.7
> O=C(c1cc([N+](=O)[O-])ccc1Cl)N1CCN(c2ccc([N+](=O)[O-])cc2)CC1
    9	2	0.1	0.6%	-4	8.0
> CCn1cc([N+](=O)[O-])c(C(=O)Nc2nc(-c3ccc(C)c(C)c3)c(C)s2)n1
    -12	-1	0.5	2.8µM*	9	1.1

Whole records from above. Order of screens: TRPML1 blocker | Six1-Eya2 inh | TRPML1 agonist | PINK1 expr mod | CtBP-E1A inh | D2 ag
CC1Cc2cc(/C(O)=C3/C(=O)C(=O)N(Cc4ccco4)C3c3cccs3)ccc2O1 (stereo not given) in the list: -16 | -7 | 0.6 | 0.7% | -3 | -1.2
CC1CN(C(=O)Nc2ccc(C(=O)NCCc3ccc(Cl)cc3)cc2)c2ccccc2S1 (stereo not given) in the list: 3 | x | 1.5 | 5.3% | x | x
Fc1ccc(Cn2nnc(-c3ccc(Cl)cc3)n2)cc1 in the list: -5 | 6 | 2.1 | 5.7% | 17 | -0.8

(list continues)
Results follow in this order: TRPML1 blocker	Six1-Eya2 inh	TRPML1 agonist	PINK1 expr mod	CtBP-E1A inh	D2 ag
> O=C(COc1ccc(F)cc1)N(Cc1cccs1)C1CCS(=O)(=O)C1 (stereo not given)
    -5	-1	-0.7	0.1%	8	-5.2
> COc1ccc(CNC(=O)COC(=O)C2CC3C=CC2C3)cc1 (stereo not given)
    -5	2	0.7	1.3%	8	0.4
> COc1ccc(-c2cnc3c(NC=O)cc(-c4ccoc4)cn23)cc1OC
    x	-27	-1.2	2.8%	-15	4.4
> C=CCNC(=S)N/N=C/c1ccc(C)c([N+](=O)[O-])c1
    13	1	0.3	-0.5%	-4	-0.1
